gsp agonist – agonists of gsp mutant (McCune-Albright syndrome); gsp mutant cells, cAMP HTRF, 30 min; control for the full effect not named in the record; Potency, µM (doses to about 76.9 µM), inactives show at the highest dose activation (cAMP increase), usual class: activators; actives 0.13% (n = 340,000); AID 624287; active = well fitted activation curve with a large enough effect; inconclusive = small, poorly fitted or top-dose-only effect, or another doubt; inactive = no such curve, though single readings can be large or run the other way; cell line not stated here;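 also: phosphodiesterase inhibitor Ro 20-1724 added with compounds to block cAMP breakdown; potency is read from the fitted curve at half-maximal effect; nearly all actives have a fitted effect of over 60% in size; about a fifth of the inactives were tested at one dose only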
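Cells stably selected in G418 were plated at 2000/well, grown 16-24 hr, then given compounds in DMSO with the PDE inhibitor […] (300 uM solution added) for 30 min at 37C; cAMP was read by HTRF.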
ClpP mod – qHTS Assay for Activators of ClpP. purified B. subtilis ClpP, FRET peptide cleavage, 20 min. Potency, µM (doses to about 57.5 µM), without a hit: at the top dose activity change, negative = active. actives 1.9% (n = 340,000). ATP-dependent Clp protease proteolytic subunit (Bacillus subtilis (strain 168)), P80244; active = well fitted falling curve with a large enough effect; inconclusive = small, poorly fitted or top-dose-only effect; inactive = no such curve, though single readings can be large or run the other way; also: potency is read from the fitted curve at half-maximal effect; the source files actives as falling curves though it sought activators and does not explain the sign; nearly all actives have a fitted effect of over 65% in size; many hits overshoot -100%
Target sequence (P80244 whole entry, looked up): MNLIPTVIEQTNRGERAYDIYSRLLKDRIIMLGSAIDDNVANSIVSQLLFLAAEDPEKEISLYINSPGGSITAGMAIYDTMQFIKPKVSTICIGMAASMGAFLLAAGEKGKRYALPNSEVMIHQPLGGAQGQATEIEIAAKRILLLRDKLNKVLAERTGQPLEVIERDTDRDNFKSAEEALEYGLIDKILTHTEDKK
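Purified B. subtilis ClpP, 10 microg/mL final in Tris/HCl pH8 with KCl, BSA, glycerol and Tween-20, cleaved an Abz/nitrotyrosine-quenched decapeptide. Fluorescence (ex 320, em 430) was read at 0 and 20 min at room temperature. Delta was normalized to 5.8 microM ADEP and DMSO/no-enzyme controls.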
D2 potentiator – potentiates the human D2 dopamine receptor allosterically; actives 0.23% (n = 360,000); DiscoveRx D2 beta-arrestin cells, luminescence, 90 min; 100% = 57 uM dopamine signal; potentiation, % (test concentration not listed); AID 624464; active = potentiation of 50% or more; inconclusive = 30% to 50%; inactive = 30% or less;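 also: compound concentration not given in the record; tested on top of an EC20 dose of dopamine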
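D2 cells co-treated with compound plus 50 nM dopamine (EC20) for 90 min at 37 deg C to detect potentiation. Beta-arrestin recruitment was read as enzyme-fragment luminescence after 1 h at ambient temperature. Full response was set by 57 uM dopamine.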
TRPV1 potentiator – human TRPV1 potentiation; potentiation, % at 8.33 µM; AID 540277; TRPV1-expressing cells, Fluo-8 calcium influx, capsaicin EC20 potentiation; host cell line not named in the record; control for the full effect not named in the record; Q8NER1; actives 0.02% (n = 320,000); active means potentiation above 80%; inconclusive means 30% to 80%; inactive means below 30%; also: 0% is about no effect
Target sequence (Q8NER1 whole entry, looked up): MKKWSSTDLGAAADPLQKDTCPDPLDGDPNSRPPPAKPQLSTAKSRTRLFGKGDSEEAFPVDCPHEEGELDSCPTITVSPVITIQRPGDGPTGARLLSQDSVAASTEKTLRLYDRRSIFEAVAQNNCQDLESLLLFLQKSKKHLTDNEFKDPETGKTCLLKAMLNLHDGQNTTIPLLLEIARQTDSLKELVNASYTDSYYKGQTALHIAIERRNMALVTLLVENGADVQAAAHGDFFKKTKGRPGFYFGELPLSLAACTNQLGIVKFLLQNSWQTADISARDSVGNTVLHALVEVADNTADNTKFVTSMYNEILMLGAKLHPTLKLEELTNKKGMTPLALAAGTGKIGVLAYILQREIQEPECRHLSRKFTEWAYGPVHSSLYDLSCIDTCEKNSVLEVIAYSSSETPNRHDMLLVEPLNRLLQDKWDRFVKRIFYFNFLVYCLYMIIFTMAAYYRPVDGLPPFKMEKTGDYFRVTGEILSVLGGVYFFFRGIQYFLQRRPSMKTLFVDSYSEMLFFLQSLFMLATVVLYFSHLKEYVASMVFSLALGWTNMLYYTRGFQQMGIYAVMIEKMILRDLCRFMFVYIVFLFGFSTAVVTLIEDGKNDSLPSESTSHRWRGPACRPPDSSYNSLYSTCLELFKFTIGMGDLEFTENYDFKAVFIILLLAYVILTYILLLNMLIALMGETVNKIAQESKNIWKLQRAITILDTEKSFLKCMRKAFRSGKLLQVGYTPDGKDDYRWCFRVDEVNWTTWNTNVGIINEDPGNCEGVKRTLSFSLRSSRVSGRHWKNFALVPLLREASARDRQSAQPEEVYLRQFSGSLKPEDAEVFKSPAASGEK
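TRPV1-expressing cells were cultured overnight at 35.5C and loaded with Fluo-8 calcium dye for 40 to 90 min at room temperature. After a 10 s baseline, compound was added and calcium influx was read kinetically for 3 min (ex 480/em 520 nm).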
gsp antagonist – antagonists of gsp mutant (McCune-Albright syndrome); gsp-mutant cells, cAMP HTRF, 30 min; control for the full effect not named in the record; Potency, µM (highest dose often 76.9 µM), for the others: at the highest dose activity change, negative = inhibition, most hits filed as inhibitors; actives 0.4% (n = 340,000); AID 624288; active = falling curve of any shape with a large fitted effect; inconclusive = falling curve, mostly with a smaller effect; inactive = flat or rising curve; cell line not stated here;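 also: intracellular cAMP measured with PDE inhibitor Ro 20-1724 present during compound exposure; potency is read from the fitted curve at half-maximal effect; % is scaled to controls: 0 for no effect and ±100 for the full control effect; nearly all actives have a fitted effect of over 65% in size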
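Measurement of cellular cAMP by homogeneous time-resolved fluorescence following a 30 min compound exposure at 37C. The PDE inhibitor […] was present throughout; the assay buffer was DPBS with 0.05% BSA and 0.005% Tween 20.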
Menin MLL FP FL – menin-MLL binding inhibition, fluorescein peptide. Fluorescence polarization, fluorescein-MLL peptide displacement from menin. FP activity change, % at 61.4 µM. 290,000 tested, under 10 active. AID 1766; inconclusive = falling polarisation curve, or a change in total fluorescence; inactive = total fluorescence flat and polarisation flat or rising; no compound was filed as active; the % refers to the polarisation; negative = inhibition;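 also: % of control where 0% means no effect; inhibitors lower the polarisation; unlabelled MLL peptide was the positive control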
Sfp PPTase inh – blocks B. subtilis Sfp PPTase activity; Biochemical Sfp PPTase activity, qHTS; Potency, µM, for the others: max response, negative = inhibition, most hits filed as inhibitors; actives 3.5% (n = 310,000); AID 1490; active = well fitted inhibition curve with a large enough effect; inconclusive = small, poorly fitted or top-dose-only effect, or another doubt; inactive = no such curve, though single readings can be large or run the other way;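 also: the enzyme is Sfp with the accession as filed and its product quenches rhodamine fluorescence; potency is read from the fitted curve at half-maximal effect; 0% = enzyme reaction without inhibitor and -100% = no enzyme wells; top concentration of the series not given in the record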
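Fluorescence-quenching assay: 15 nM Sfp-PPTase preincubated 15 min at room temperature with compound, then 5 uM rhodamine-CoA and 12.5 uM BHQ-2-labelled YbbR peptide added. Fluorescence (ex 525/em 598 nm) read at start and after 30 min; difference gives rate.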
The depositor's hits bear a star; ? = inconclusive; / = no result given; & = joins results of further samples; [ ] = another dose, or the depositor's remark.

SMILES	gsp agonist	ClpP mod	D2 potentiator	TRPV1 potentiator	gsp antagonist	Menin MLL FP FL	Sfp PPTase inh
COc1ccc(C)cc1NC(=O)CSc1nnc2ccc(-c3cccnc3)nn12	15%	-2.2%	-1	8	7%	/	/
COCCN1CCN(C(=O)C2CCC(=O)N(CCc3cccc(F)c3)C2)CC1 (stereo not given)	-1%[15.4 µM]	2.5%	-11	-5	13%	/	8%
Cn1c(CNC(=O)CCNC(=O)c2cccc(Cl)c2)cc(=O)n(C)c1=O	?	1.2%	-9	5	31%	/	9%
C/C(=N\NC(=O)CSCc1ccccc1Cl)c1cc(O)ccc1O	2%	0.5%	-26	1	-14%	-2.1	?
COc1ccc2cc(C(=O)NCc3ccccc3)c(=Nc3ccc(C(=O)O)cc3)oc2c1	18%	8.2%	2	6	-13%	-2.8	-13%
Cc1ccc(NC(=O)c2ccc(-c3nn(C)c(=O)c4ccccc34)cc2)cc1	19%	30%	9	-10	-9%	4.0	79µM*
CCCNC(=O)c1ccc2c(c1)ncn2-c1ccccc1OC	-45%[inhibitor]	-15%	-27	1	3%	0.6	6%
Cc1nnc(SCC(=O)NC2CC2)n1CCc1ccccc1	-33%[inhibitor]	-0.3%	-15	8	-7%	-1.1	11%
COc1cc2c(cc1OC)C(C)N(CC(=O)Nc1ccc(C)c(S(=O)(=O)N3CCOCC3)c1)CC2 (stereo not given)	10%	-1.8%	-6	-13	-1%	-1.9	1%
COc1ccccc1OCC(O)CO (stereo not given)	/	-8.8%	5	-1	-7%	-3.7&-0.3	-2%&15%
CC(=O)c1cccc(S(=O)(=O)N2CCn3cccc3C2C)c1 (stereo not given)	-25%	-8.2%	0	-1	-1%	/	/
O=C(COC(=O)C1CCC1)Nc1ccc(Oc2ccccc2)cc1	6%	-0.3%	-2	-20	2%	0.3	3%
Cc1nn(-c2ccccc2)c(C)c1-c1nnc(C(F)(F)F)o1	-19%	1.6%	-4	-11	-4%	1.4	8%
Cc1nc(-c2ccc(NC(=O)C(C)(C)C)cc2)c(-c2ccccc2)o1	1%[15.4 µM]	-0.2%	2	-8	-15%	-3.5	12%
CC1(C)CC(=O)C2=C(C1)Nc1cc3c(cc1C2c1ccc2c(c1)OCO2)OCO3 (stereo not given)	-5%	3.9%	-2	-20	-4%	0.4	-10%
COc1cc(OC)cc(C(=O)NC(=S)Nc2ccc3[nH]c(=O)[nH]c3c2)c1	-6%[15.4 µM]	-2.6%	-2	-2	3%	3.2	5%
CCCCOc1c(C(=O)Nc2ccccc2)nnn1-c1ccccc1	-31%[15.4 µM]	/	-20	-1	/	-0.5	11%
CCCCOc1ccc(SCCCN2CCOCC2)cc1	?	-1.7%	-15	/	5%	/	/
CCSCc1nc2ccccn2c1Br	16%	-18%	24	3	8%	-8.3	-4%
CCOc1ccc(N2C(=O)CC(N3CCN(c4ccc(Cl)cc4)CC3)C2=O)cc1 (stereo not given)	12%	1.3%	-4	-1	3%	-0.1	?
CCc1nnc(NC(=O)CSc2nnc(-c3ccoc3C)n2-c2ccccc2)s1	-6%	1.2%	-32	9	-2%	-0.3	2%
Cc1[nH]ccc(=O)c1Oc1ncc(C(F)(F)F)cc1Cl	3%	/	-4	-6	3%	-3.3	12%
N#Cc1ccccc1COC(=O)c1ccc2c(c1)OCCO2	-39%[15.4 µM]	/	-21	-1	3%	/	/
Cc1cccc(C2=NN(c3ccccc3)[C@@H](C(=O)N3CCOC3=O)[C@@H]2c2ccc([N+](=O)[O-])cc2)c1	/	0.9%	/	/	-19%	-0.6	7%
Cc1c(C(=O)N(Cc2ccc(F)cc2)C2CCS(=O)(=O)C2)oc2ccccc12 (stereo not given)	?	0.1%	-3	-15	-16%	-3.2	2%

(cont.)
SMILES	gsp agonist	ClpP mod	D2 potentiator	TRPV1 potentiator	gsp antagonist	Menin MLL FP FL	Sfp PPTase inh
CC(=O)N1CCN(c2ccc(NCc3ccc(C)cc3)cc2)CC1	6%	-0.8%	30	-4	-13%	-1.3	40µM*
CCOC(=O)N1CCN(C(=O)c2ccc3nc(SCc4ccc(F)cc4)n(C)c3c2)CC1	-8%	-1.0%	13	/	-8%	5.2	-5%
Cc1ccccc1NC(=O)CSc1nc2c(c(=O)n(C)c(=O)n2C)n1C	25%[15.4 µM]	/	-12	1	-18%	7.1	15%
CCn1cc(C(=O)NC2CCc3ccccc32)c(=O)c2ccc(C)nc21 (stereo not given)	/	/	/	?	/	-0.6	7%
COc1ccc2nc(NC(=O)CSc3nccc(C)n3)sc2c1	-80%[inhibitor]	-0.4%	-4	4	-18%	0.2	0%
Cc1ccc(C)c(NC(=O)CSc2n[nH]c(-c3ccccn3)n2)c1	-34%[inhibitor]	/	-6	2	-5%	-1.1	-15%
Oc1ccccc1C(Nc1nccs1)c1ccc2cccnc2c1O (stereo not given)	4%[15.4 µM]	/	-2	9	8%	-0.4	23%
O=C(Cn1nc(-c2ccccc2)c2ccccc2c1=O)NCC1CCCO1 (stereo not given)	?	0.0%	-10	0	2%	2.7	0%
NNc1cc2c(nn1)CCN(C(=O)c1ccccc1)C2	14%	?	-20	/	/	/	/
Oc1c(CN2CCOCC2)cc(CN2CCOCC2)c(O)c1O	-19%	/	2	/	5%	/	/
Cn1cnnc1SCC(=O)Nc1ccccc1Oc1ccccc1	1%	/	-3	?	1%	2.4	-6%
O=C(NCCC1=CCCCC1)c1cc(COc2c(F)cccc2F)on1	?	-4.1%	-17	-8	2%	-1.9	8%
CSc1ccc(S(=O)(=O)NCC(=O)OCC(=O)N(C)CC(=O)Nc2ccc(F)cc2)cc1[N+](=O)[O-]	-39%[inhibitor]	0.1%	-5	/	7%	/	/
CCOC(=O)c1cc2sccc2n1CC(=O)N1CCc2ccccc21	-36%	-4.1%	-6	2	13%	-6.2	-6%
Cc1cc(Nc2ccc(F)cc2Cl)n2ncnc2n1	-12%	-0.8%	-2	18	6%	-0.3	-8%
CCOC(=O)c1cnc(SCc2nc(N)nc(Nc3ccc(C)cc3)n2)nc1N	-35%[inhibitor]	0.3%	?	3	-1%	4.2	4%
CN(Cc1ccc(C(C)(C)C)cc1)C(=O)c1ccc2c(=O)n3c(nc2c1)CCC3	5%[15.4 µM]	-6.4%	-23	-9	12%	/	/
CC(C)OP(=O)(OC(C)C)C(Nc1ccccc1)c1cccc2c1OCO2 (stereo not given)	-2%	0.6%	-2	-29	-13%	0.7	0%
CCCc1cc(=O)n2[nH]c(SCc3ccccc3)nc2n1	20%	0.2%	-2	23	?	4.7	14%
Cc1cc(C(=O)COC(=O)c2cccs2)c(C)n1-c1c(C)n(C)n(-c2ccccc2)c1=O	25%	1.8%	0	15	2%	3.3	0%
O=C(NCc1n[nH]c(=S)n1-c1ccccc1Cl)c1ccc(S(=O)(=O)N2CCCCC2)cc1	5%	/	-13	-2	4%	-4.7	-3%
C=CCN(C(=O)c1cccc(S(=O)(=O)N2CCN(C)CC2)c1)c1nc(-c2ccccc2)cs1	-13%	-11%	-14	-1	-18%	0.6	-2%
O=C(COC(=O)c1cccc(S(=O)(=O)N2CCCCC2)c1)NC1CCCc2ccccc21 (stereo not given)	2%	-2.8%	11	-11	34%[activator]	1.9	11%
O=C(CCN1CCN(C/C=C/c2ccccc2)CC1)Nc1cccc(F)c1	4%	-1.2%	8	3	2%	1.3	8%
COc1cc(-c2cc(=O)c3c(O)c(OC)c(OC)c(O)c3o2)ccc1O	/	-4.3%	88*	12	-6%	0.2	5µM*

The listing continues:
SMILES	gsp agonist	ClpP mod	D2 potentiator	TRPV1 potentiator	gsp antagonist	Menin MLL FP FL	Sfp PPTase inh
O=C(OCC(=O)N1CCCC1)c1ccc(O)cc1	-6%[15.4 µM]	/	-4	-4	17%	0.3	5%
O=Nc1c2cc3ccccc3[nH]c-2c2ccccc12	8%[15.4 µM]	0.6%	18	/	8%	/	/
O=C(Nc1ccccc1)c1ccc(NCc2cccnc2)c(S(=O)(=O)N2CCOCC2)c1	-49%[inhibitor]	-16%	-7	10	-6%	0.7	8%
COc1cc2c(c(OC)c1OC)-c1ccc(NCc3ccccc3)c(=O)cc1C(NC(C)=O)CC2 (stereo not given)	0%	-9.9%	-5	/	/	/	/
CCOc1ccc(NC(=O)c2oc3ccccc3c2NC(=O)CC)cc1	/	/	/	-22	/	0.3	12%
Cc1ccc(C)c(Cn2cnc3c(cnn3C(C)(C)C)c2=O)c1	-17%	-1.9%	7	9	-5%	?	-28%
COc1ccc(C(=O)Nc2cccc(-c3ccc4nncn4n3)c2)cc1OC	?	/	-5	1	1%	-0.9	14%
Nc1nnc(SCc2ccc3c(c2)OCO3)s1	-1%	-1.9%	-11	17	-5%	1.0	17%
Cn1nc(C(=O)N2CCN(c3ccccn3)CC2)c2ccccc2c1=O	-2%	-0.2%	-25	7	8%	/	/
Cc1cccc(OCc2ccc(C(=O)N3CCOCC3)o2)c1	-5%[15.4 µM]	/	-1	-14	6%	-2.3	14%
O=C(CCN1C(=O)/C(=C/c2ccccc2Cl)SC1=S)NCCCN1CCOCC1	-17%	-1.2%	2	-5	?	/	-8%
Cc1cc(Br)ccc1OCCn1ccnc1	-1%	2.5%	-10	-2	16%	4.1	9%
CCOC(=O)C1(Cc2ccc(OC)cc2)CCN(C(=O)c2sc(C)nc2C)CC1	0%	-0.2%	-5	-13	-8%	-4.7	14%
CCCc1cc(=O)[nH]c(SCC(=O)NC2CC2)n1	27%	-3.5%	-1	/	11%	/	/
Cc1ccc(O)c(C(=O)c2cnn(-c3ccc(S(=O)(=O)N4CCOCC4)cc3[N+](=O)[O-])c2)c1	-10%	1.5%	9	5	12%	/	11%
COc1cc(CCC(=O)NNC(=O)c2cccc(Cl)c2)cc(OC)c1OC	-4%[15.4 µM]	/	0	1	4%	-1.5	17%
O=C(Nc1ccccc1N1CCCCC1)c1ccc(-c2cc(Cl)ccc2Cl)o1	-2%[15.4 µM]	/	-1	/	-5%	/	/
Cc1oc(S(=O)(=O)N2CCCC2)cc1C(=O)Nc1ccccc1	-12%[15.4 µM]	/	-1	-12	-3%	3.6	17%

Screening data (PubChem)
